Source: PubChem (National Center for Advancing Translational Sciences (NCATS))
VDR inhibitor: inhibitors of human vitamin D receptor | Potency, µM, inactives show max response, negative = inhibition, usual class: inhibitors | 400,000 tested, 0.93% active | P11473 | AID 504847 | VDR-SRC2-3 peptide fluorescence polarization, 2 h; active means well fitted inhibition curve with a large enough effect; inconclusive means small, poorly fitted or top-dose-only effect, or another doubt; inactive means no such curve, though single readings can be large or run the other way; further: series mostly up to about 120 µM
Target sequence (P11473 whole entry, looked up): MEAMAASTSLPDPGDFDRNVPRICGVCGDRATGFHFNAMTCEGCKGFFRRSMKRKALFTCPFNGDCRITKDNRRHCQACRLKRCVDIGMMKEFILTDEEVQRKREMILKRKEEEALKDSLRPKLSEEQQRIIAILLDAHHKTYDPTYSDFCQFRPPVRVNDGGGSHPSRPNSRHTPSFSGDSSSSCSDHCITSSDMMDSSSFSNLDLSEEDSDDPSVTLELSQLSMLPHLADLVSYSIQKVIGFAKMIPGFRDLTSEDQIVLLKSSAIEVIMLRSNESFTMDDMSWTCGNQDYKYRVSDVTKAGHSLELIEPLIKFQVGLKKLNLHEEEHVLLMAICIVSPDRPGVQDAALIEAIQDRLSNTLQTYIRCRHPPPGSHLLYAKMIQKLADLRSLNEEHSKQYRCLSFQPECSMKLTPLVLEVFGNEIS
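Fluorescence polarization assay of small-molecule disruption of VDR binding to coregulator peptide SRC2-3. Compounds and controls pin-transferred, then read after 2 h incubation at ambient room temperature.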
* = called active by the depositor; ? = inconclusive; & = joins results of further samples; [ ] = remark or other dose. On the % scale 0 is the no-effect control and ±100 the full control effect; potency means the concentration at half of the fitted maximal effect. These rows are one share of the data (hit frequency here may not be typical).

VDR inhibitor,SMILES
-8%,CCOC(=O)Cc1cc(=O)n2[nH]c(-c3ccccc3)cc2n1
4%,CN(C)S(=O)(=O)c1ccc(Oc2ccccc2)cc1
-7%,COC(=O)CC1COc2ccccc2N1C(=O)c1ccc(Cl)cc1 (stereo not drawn)
12%,Cc1ccc(C)c(N2CCN(c3nc4ccccc4n4nnnc34)CC2)c1
7%,Oc1c(CN2CCCCC2)ccc2cccnc12
-6%,CCc1ccc2[nH]c(=O)c(C(c3nnnn3Cc3ccco3)N3CCC(C)CC3)cc2c1 (stereo not drawn)
-9%,O=C1c2cccc(OCc3ccc(F)cc3)c2CCN1Cc1ccc(F)cc1
9%,Cc1ncc2c(n1)NC(=O)NC2
156%[activator],COc1ccc(C(=O)C2CCCN(C(=O)C3CCOCC3)C2)c(C)c1 (stereo not drawn)
-2%,COc1ccccc1-n1cc([C@@H]2C[C@H]3CN(c4ccccc4)C(=O)[C@]34CCCN24)cn1
4%,CC1(C)Cc2nc3oc4c(=S)nc[nH]c4c3cc2CO1
?,CCOC(=O)c1c2c([nH]c(=S)c1C#N)CCCC2

Reprinted from the part before: two compounds, then new ones.
VDR inhibitor,SMILES
4%,CC1(C)Cc2nc3oc4c(=S)nc[nH]c4c3cc2CO1
?,CCOC(=O)c1c2c([nH]c(=S)c1C#N)CCCC2
-10%,CCOc1ccccc1NC(=S)N1C2CCC1CC(NC(=O)NC13CC4CC(CC(C4)C1)C3)C2 (stereo not drawn)
-7%,Cc1cccc(NC(=O)Nc2cccc(C)n2)n1
-11%,CCN(C(=O)c1cccc(S(=O)(=O)N(C)C)c1)C12CC3CC(CC(C3)C1)C2
-2%,O=C(NC(=S)N1CCN(c2ccc(Cl)cc2[N+](=O)[O-])CC1)c1cccs1
-14%,Cc1ccc(C(=O)C2=C(O)C(=O)N(Cc3ccco3)C2c2ccc(N(C)C)cc2)o1 (stereo not drawn)
-2%,COc1cc(OC)c2c3c(c(C4CCCCC4)nc2c1)CCCC3
33%[activator],N#CCCN(Cc1cccnc1)C(=O)Nc1ccccc1
1%,c1cncc(N=c2scc(-c3cccc4ccccc34)n2CCCn2ccnc2)c1
-10%,N#Cc1c(NC(=O)C2CCCO2)sc2c1CCCCCC2 (stereo not drawn)
-13%,Cc1nccn1CCOc1ccccc1Cl
-17%,CCN(CC)c1nc(-c2ccccc2)nc2c1sc(=S)n2CC
-10%,Cc1cccc(CN2CCc3c(OCC(=O)NCc4ccco4)cccc3C2=O)c1
-3%,Cc1ccc(S(=O)(=O)N2CCC3(CC2)OCCO3)cc1
-6%&1%,COc1cccc(CNCCNC(=O)c2nonc2N)c1
7%,COc1ccc(OC)c(Nc2ncnc3c2cnn3-c2cccc(Cl)c2)c1
-1%,C=CCNC(=S)Nc1ccc(Cl)cc1
-15%,CCN(CC)C(=S)Oc1ccc(Cl)cc1Cl
-10%&7%,Cc1nn(CCCC(=O)NCc2ccccc2)c(=O)c2nn(-c3ccccc3)c(C)c12
1%,Cc1nc(SCC(=O)NCc2ccco2)c2c(C)c(C)sc2n1
-16%,CSc1ccc(C(=S)N2CCCCCC2)cc1
-2%,Cc1ccc(C2CC2C(=O)NN)cc1 (stereo not drawn)
1%,COC(=O)c1nnn(CC(=O)Nc2cc(F)ccc2F)c1C(=O)OC
13%,Cc1nc2ccccc2n1C(=O)c1cc(-c2ccc(Br)cc2)nc2ccccc12
14%,COc1ccc(C(=O)c2c(-c3ccc(OC)cc3)oc3ccc(-c4cc(OC)c(OC)c(OC)c4)cc23)cc1
-25%,COc1ccc(N(CC(=O)Nc2ccc3c(c2)OCCO3)S(=O)(=O)c2c(C)nn(C)c2C)cc1
-7%,COC(=O)C(C)Sc1nc2c(cnn2-c2ccccc2)c(=O)[nH]1 (stereo not drawn)
-10%,Cc1ccc(/C=[N+](/[O-])C2SC(=S)N(C)C2(C)C)cc1 (stereo not drawn)
10%,COc1ccc(OCc2cc(C(=O)NC(C)Cn3cncn3)no2)c(Cl)c1 (stereo not drawn)
-22%,Cc1ccc(C)c(-n2c(-c3ccc(Br)cc3)csc2=NC(=O)c2ccccc2F)c1
-30%,Cc1ccc(-c2csc3ncnc(OCC(=O)NC(=O)NCc4ccco4)c23)cc1
-2%,O=S(=O)(O/N=C1\CCCc2ccccc21)c1ccccc1
2%,Cc1nonc1C1CCCN1Cc1nc(-c2ccc(F)cc2F)oc1C (stereo not drawn)
7%,O=C(Nc1ccc(N2CCOCC2)c(Cl)c1)c1cccc(-n2cnnc2)c1
-4%,Cc1onc(-c2ccccc2)c1C(=O)NC(=S)NNC(=O)c1ccc(O)cc1
17%,Cc1ccc2[nH]c(CSc3nnc(NC(=O)COc4ccccc4C)s3)cc(=O)c2c1
7%,CC1CCCCN1CC(O)COCc1ccccc1 (stereo not drawn)

Shown bar-delimited: part of the list above.
mol | VDR inhibitor
COc1ccc(N(CC(=O)Nc2ccc3c(c2)OCCO3)S(=O)(=O)c2c(C)nn(C)c2C)cc1 | -25%
COC(=O)C(C)Sc1nc2c(cnn2-c2ccccc2)c(=O)[nH]1 (stereo not drawn) | -7%
Cc1ccc(/C=[N+](/[O-])C2SC(=S)N(C)C2(C)C)cc1 (stereo not drawn) | -10%
COc1ccc(OCc2cc(C(=O)NC(C)Cn3cncn3)no2)c(Cl)c1 (stereo not drawn) | 10%
Cc1ccc(C)c(-n2c(-c3ccc(Br)cc3)csc2=NC(=O)c2ccccc2F)c1 | -22%

(list continues)
VDR inhibitor,SMILES
5%,COCCNC(=O)CCCn1c(SCC(=O)c2ccc(Br)cc2)nc2c(sc3ccccc32)c1=O
-17%,Cc1ccc2cc3cc(C(=O)N4CCN(c5cccc(C(F)(F)F)c5)CC4)sc3nc2c1
-12%,COCCN1Cc2cccc(C(=O)Nc3ccc(C)c(F)c3)c2C1=O
-7%,c1ccc(C2=NNC(c3ccco3)=Nc3ccccc32)cc1
3%,Cc1cc(OCC(=O)Nc2cccc(S(=O)(=O)N3CCCC3)c2)ccc1Cl
19%,COc1ccccc1NC(=O)Nn1cnnc1
17%&9%,Cc1ccc(NC(=O)NCC2CCN(Cc3cccc(Cl)c3)CC2)cc1Cl
-5%,CCOC(=O)c1[nH]c2ccc(Br)cc2c1NC(=O)CCN1CCC(C(=O)OCC)CC1
-7%,CCCCc1nn2c(=O)cc(CN(CC)c3ccccc3)nc2s1
-5%,CCOC(=O)c1sc(NC(=O)CSc2nc3c(c(-c4ccc(OC)cc4)c2C#N)CCCC3)c(C#N)c1C
3%,CCC(=O)NC(c1cc(Cl)c2cccnc2c1O)C1CC1 (stereo not drawn)
10%,O=S(=O)(c1ccccc1)N1CCC2(CC1)CO2
-22%,CCc1nnc(NC(=O)CC23CC4CC(CC(Br)(C4)C2)C3)s1
-18%,COc1ccc2cc(S(=O)(=O)N3CCCCCC3)ccc2c1
11%,CCCn1cc(NC(=O)c2cc3n(n2)C(C(F)(F)F)CC(c2ccccc2)N3)cn1 (stereo not drawn)
-1%,CCCC[C@@H]1C[C@H]1[C@@H](NC(=O)c1cccs1)c1ccc(Cl)cc1
19%,Cc1onc(-c2c(F)cccc2Cl)c1C(=O)N1CCc2ccccc2C1
6%,CC(C)(C)C(=O)Nc1ccccc1C(=O)Nc1cccnc1
?,COc1ccc(O)c(/C=c2/sc3nc4cc(C)c(C)cc4n3c2=O)c1
-10%,COc1ccc(C(=O)C(C)OC(=O)c2cccc(S(=O)(=O)Nc3cc(Cl)c(OC)cc3OC)c2)cc1 (stereo not drawn)
-8%,Cc1cc(OCC(O)CN2CCc3ccccc3C2)ccc1Cl (stereo not drawn)
?,Cc1ccc(N(CC(=O)NCc2ccc(F)cc2)C(=O)c2csnn2)c(C)c1
-24%,Cc1cc(C)c(C(=O)C[n+]2cccc(C(N)=O)c2)c(C)c1
?,Cc1ccc(CN(C)C(=O)c2cc(COc3ccc(F)cc3Cl)on2)o1
-8%,CCN1C[C@@H]2[C@@H]3C(=O)N(Cc4ccccc4)C(=O)[C@@H]3[C@](Cc3ccccc3)(C1=O)N2C(=O)c1ccc(Br)cc1
-10%,Cc1noc(C)c1C(=O)N1CCC[C@@]2(CCN(c3ncccn3)C2)C1
-5%,O=C(C1=C[C@@H](c2ccc(Br)cc2)C[C@@H](OCc2ccc(CO)cc2)O1)N1CCN(Cc2ccccc2)CC1
-9%,COc1ccc(-c2oc(=O)c3cc(OC)c(OC)cc3c2-c2ccc3c(c2)OCO3)cc1
14%,Cc1ccc(-c2csc(NC(=O)Cn3[nH]c(=O)c4ccccc4c3=O)n2)cc1
-9%,COc1ccc(NC(=S)N/C(=N/S(=O)(=O)c2ccc(C)cc2)c2ccccc2)cc1
6%,O=C(CN1CCC(c2nc3ccccc3[nH]2)CC1)Nc1ccc2c(c1)OCO2
1%,Cc1ccc(C(=O)N/N=C2\SCC(=O)N2c2cc(C)ccc2C)cc1
4%,O=C(Cc1ccccc1)Nc1nnc(-c2cccs2)s1
7%&4%,O=C(NCc1ccc(F)cc1)C1(c2cccs2)CCOCC1
9%,COc1ccccc1C1c2[nH]c3ccccc3c2CCN1Cc1cnc(C)s1 (stereo not drawn)
-1%,COc1ccc(CC(NC(C)=O)C(=O)NC2CCN(C(=O)Nc3ccc(Cl)cc3)CC2)cc1OC (stereo not drawn)

3 entries from above, ordered by the value under VDR inhibitor, rising:
VDR inhibitor,SMILES
-18%,COc1ccc2cc(S(=O)(=O)N3CCCCCC3)ccc2c1
-8%,Cc1cc(OCC(O)CN2CCc3ccccc3C2)ccc1Cl (stereo not drawn)
-2%,COc1ccccc1-n1cc([C@@H]2C[C@H]3CN(c4ccccc4)C(=O)[C@]34CCCN24)cn1

Compounds from the list above that contain a CF3 group (two):
VDR inhibitor,SMILES
-17%,Cc1ccc2cc3cc(C(=O)N4CCN(c5cccc(C(F)(F)F)c5)CC4)sc3nc2c1
11%,CCCn1cc(NC(=O)c2cc3n(n2)C(C(F)(F)F)CC(c2ccccc2)N3)cn1 (stereo not drawn)

Next part.
VDR inhibitor,SMILES
-13%,CC1CCC2(CC1)Nc1ccccc1C(=O)N2c1ccccc1 (stereo not drawn)
12%,COCCn1c(N)c(N(Cc2ccccc2)C(=O)CN2C(=O)NC(C)(c3ccccc3)C2=O)c(=O)[nH]c1=O (stereo not drawn)
1%,COc1ccc(C(=O)NCCCOC(=O)c2ccc(OC)cc2)cc1
6%,COc1cc(C(=O)NCC(c2ccc3c(c2)OCO3)N2CCN(C)CC2)cc(OC)c1OC (stereo not drawn)
-1%,COc1ccccc1N1C(=O)CC(Sc2nccc(C)n2)C1=O (stereo not drawn)
42%[activator],COc1ccc(CCNC(=O)CCc2ccccc2)cc1OC
6%,COc1ccc(C(=O)Cn2c(NCCO)nc3ccccc32)cc1OC
-15%,Cc1ccc(Cl)cc1NC(=O)CCS(=O)(=O)c1ccc(Br)s1
4%,Cc1cc(C)cc(C(=O)OCC(=O)NCCNC(=O)COC(=O)c2cc(C)cc(C)c2)c1
13%,Clc1cc(-c2ccc(/C=N/n3cnnc3)o2)ccc1Br
-2%,COC(=O)c1c(NC(=O)CN2C(=O)NC3(CCC(C)CC3)C2=O)sc2c1CCC2 (stereo not drawn)
21%,CCOc1ccccc1C(=O)Nc1cccc(-c2nc3ccccc3s2)c1
-2%,Cc1ccc2nc(CSc3nnc(NC(=O)c4cccc(Br)c4)s3)cc(=O)n2c1
12%,O=C(NC(=S)NCCN1CCOCC1)c1ccccc1
5%,O=C(CC(c1ccccc1)c1cc(Br)ccc1O)N1CCCC1 (stereo not drawn)
-5%,O=c1c2c3c(sc2nnn1Cc1ccc(Br)cc1)CCCC3
-11%,Cc1cccc(N2C(=O)CC(Sc3ccccc3C(=O)O)C2=O)c1 (stereo not drawn)
-8%,CCc1noc(C)c1C(=O)Nc1ccc(C#N)cc1
10%,CCOC(=O)[C@@H]1[C@H]2COc3ccccc3[C@@H]2N2C(=O)N(c3cccc(Cl)c3)C(=O)[C@@]12C
-8%,COc1ccc(OCC(=O)Nc2ccccc2N2CCCCC2)cc1
26%,Cc1ccc(C)c(NC(=O)CSc2nnc(CCNC(=O)OC(C)(C)C)o2)c1
0%,CCOc1ccccc1N1CCN(C(=O)NCc2ccc(Cl)cc2)CC1
-6%,COCc1ccc(C(=O)N2CCCC(Nc3ccc(C(C)C)cc3)C2)s1 (stereo not drawn)
11%,O=C(COC(=O)c1ccc(F)cc1F)Nc1ncccn1
7%,CCOc1ccc(NC(=O)c2ccccc2O)cc1
14%,CC1(C)CC(=O)C=C(c2cc3ccccc3s2)C1
-9%,Cc1nnc(Sc2cc(C(=O)NCCCN(C)Cc3ccccc3)c3ccccc3n2)s1
-11%,COc1ccc(/C(N)=N/O)c(OC)c1
-3%,CCSc1nnc(NC(=O)C2C3C=CC(C3)C2C(=O)O)s1 (stereo not drawn)
-25%,Cc1cc2cc(CNC(=O)c3ccc(S(=O)(=O)N4CCCCC4)cc3)ccc2n1C
-13%,C=CCn1c(SCC(=O)N2CCCC2=O)nc2sc(CC)cc2c1=O
-7%,Nc1ccccc1Nc1cc(-c2cccc(Cl)c2)nn1-c1ccccc1
-7%,Cc1cccc(NC(=O)CCSc2ccccc2)c1C
-7%,N#C/C(=C\c1cc([N+](=O)[O-])c(N2CCOCC2)cc1N1CCOCC1)c1nc2ccccc2[nH]1
2%,Cc1ccc(S(=O)(=O)N(C)C)cc1NC(=S)NNC(=O)C1CC1
-3%,Cc1cccc(N(C(=O)CCC(=O)Nc2cc(C)on2)C(C(=O)NC2CCCC2)c2cccnc2)c1 (stereo not drawn)
